FGF22 binding: binders of recombinant human FGF22 by thermal shift; SYPRO orange fluorescence; percent of sucrose octasulfate shift, DMSO zero; calls only at 9.99 µM; actives 1.5% (n = 340,000);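 active = melting point raised past a set limit in the mean and every replicate; inconclusive = no clear call; three in four hits are not shown here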
Target sequence (Q9HCT0 whole entry, looked up): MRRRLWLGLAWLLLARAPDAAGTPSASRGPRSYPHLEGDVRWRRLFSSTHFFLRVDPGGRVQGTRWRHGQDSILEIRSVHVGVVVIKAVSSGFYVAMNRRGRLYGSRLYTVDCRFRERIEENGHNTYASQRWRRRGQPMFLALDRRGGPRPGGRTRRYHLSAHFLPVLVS
Vif TR-FRET: inhibitors of Vif binding to APOBEC3G peptide, primary screen, biochemical, TR-FRET, GST-Vif 1-94, biotin-A3G peptide, dose response retest (AID 1117319); TR-FRET GST-Vif / biotin-A3G peptide binding; higher % means a stronger effect; test concentration not given here; strong numbers were not always called active; actives 0.57% (n = 260,000); inhibition, %, or IC50 in µM where a hit was titrated;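 active = above the screen mean plus three standard deviations and confirmed in dose response; inconclusive = results disagree or hit not tested in dose response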;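 note: Vif residues 1-94 fused to GST binding biotinylated APOBEC3G peptide 110-148; 0% = full assay without inhibitor and 100% = GST in place of GST-Vif; retest series ran down from 100 µM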
MLL AF4-AF9 inh: MLL-AF4/AF9 protein interaction inhibition. AlphaScreen, biotin-AF4 peptide binding to FLAG-AF9. inhibition, % at 10 µM. actives 0.47% (n = 350,000);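 active = every replicate reaching a set inhibition limit, whatever the replicate mean, cut at about 25% in these data; inconclusive = mean inhibition reaches that limit but some replicates miss it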;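 note: 0% = plate neutral control median and 100% = total signal loss; the record names both 10 and 1 µM as test concentration; the first replicate is given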
ALR inh: blocks human ALR sulfhydryl oxidase activity; P55789; purified ALR, DTT oxidation, H2O2 HRP-luminol luminescence; inhibition, % (no concentration beside the values); actives 3.8% (n = 290,000); AID 485317;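 active = mean and each replicate at 75% or more; inconclusive = only one of the two met; inactive = neither met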;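 note: stock transfer was 7.5 nL into about 7.5 µL; 0% = neutral wells and 100% = wells with inactivated enzyme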
Target sequence (P55789 whole entry, looked up): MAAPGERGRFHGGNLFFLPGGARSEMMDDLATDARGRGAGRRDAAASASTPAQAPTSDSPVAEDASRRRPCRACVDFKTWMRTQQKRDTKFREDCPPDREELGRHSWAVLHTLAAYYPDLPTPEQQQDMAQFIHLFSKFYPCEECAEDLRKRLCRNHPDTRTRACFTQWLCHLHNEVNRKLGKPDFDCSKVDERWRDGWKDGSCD
Ecoli growth: blocks Escherichia coli growth; OD600, 23 h; hits give low values; OD600 absorbance (test concentration not listed); actives 0.21% (n = 330,000);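 active = OD600 absorbance below the run mean of sample wells minus 3.6 SD, in any replicate, cut at about 0.56 in these data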;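 note: stock transfer was 300 nL into about 60 µL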
rRNA inh HTS: inhibits bacterial ribosomal RNA function over humanized ribosomes; AID 720706; actives 1.6% (n = 350,000); GFP signal change (wild-type ribosome), % (concentration not given with the values); E. coli WT GFP vs humanized-ribosome RFP mutants, fluorescence, 24 h; hits give low values; DMSO median 0, no signal -100;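 active = significant combined selectivity score with lowered wild-type GFP, culture density cut under 30%, mutant RFP and density less affected; inactive = any of these conditions unmet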; note: one replicate is shown; some compounds called inactive have numbers as strong as hits
HNF4A DNA FP: change in binding of human HNF4 alpha to DNA; P41235; actives 0.3% (n = 360,000); activity change, % at 10 µM; HNF4a-FITC DNA binding, fluorescence polarization, 1 h; AID 1224865; in the data active = activity change above about 30%, passing the limit was not always enough;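 note: controls were the assay level and a saturating level of protein; the project sought stronger binding though the title names inhibitors; some compounds called inactive have numbers as strong as hits; positive values seem to mean higher polarization but the record does not say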
Target sequence (P41235 whole entry, looked up): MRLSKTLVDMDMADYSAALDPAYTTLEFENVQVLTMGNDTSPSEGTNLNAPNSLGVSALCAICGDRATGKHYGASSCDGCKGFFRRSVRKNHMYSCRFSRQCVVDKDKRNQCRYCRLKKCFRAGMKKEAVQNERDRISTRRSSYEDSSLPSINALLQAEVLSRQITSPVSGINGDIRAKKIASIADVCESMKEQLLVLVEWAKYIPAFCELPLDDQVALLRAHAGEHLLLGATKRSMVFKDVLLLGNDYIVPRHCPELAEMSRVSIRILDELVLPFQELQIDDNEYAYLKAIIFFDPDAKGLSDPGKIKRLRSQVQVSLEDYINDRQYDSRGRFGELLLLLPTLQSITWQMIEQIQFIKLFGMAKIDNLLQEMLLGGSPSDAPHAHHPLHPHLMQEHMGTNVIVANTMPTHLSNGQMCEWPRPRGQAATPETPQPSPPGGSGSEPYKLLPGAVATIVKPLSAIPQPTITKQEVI
rRNA inh HTS OD600: second read-out of rRNA inh HTS, no call of its own (marks repeat the call); OD600 change, %; measured here: OD600 growth;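 optical density of the mix in the first replicate; 0 = DMSO median and -100 = no signal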
rRNA inh HTS RFP: second read-out of rRNA inh HTS, no call of its own (marks repeat the call); RFP signal change, %; measured here: RFP humanized mutant strains;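 first replicate; 0 = DMSO median and -100 = no signal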
Numbers without * were called inactive; i = inactive; u = inconclusive; x = no result given. These rows are one share of the data. The share of hits here may be higher or lower than overall.

Key to letters – A = FGF22 binding; B = Vif TR-FRET; C = MLL AF4-AF9 inh; D = ALR inh; E = Ecoli growth; F = rRNA inh HTS; G = rRNA inh HTS OD600; H = rRNA inh HTS RFP; I = HNF4A DNA FP
> O=C(NCCc1nc(-c2ccccc2Cl)no1)c1ccccc1
  A = x	B = x	C = x	D = 2	E = 0.66	F = x	G = x	H = x	I = -2.6

> O=C(NC12CC3CC(CC(C3)C1)C2)C1CCCN1C(=O)NC1CCCCC1 (configuration not stated)
  A = x	B = -12%	C = x	D = 1	E = 0.7	F = x	G = x	H = x	I = -0.4

> CC(C)COC(=O)n1c(=O)oc2cc(S(=O)(=O)N3CCCCC3)ccc21
  A = x	B = 2%	C = x	D = x	E = 0.65	F = x	G = x	H = x	I = 1.1

> COC(=O)[C@@]12C[C@@H](CC(=O)N3CCN(C(=O)C4CC4)CC3)C(=O)N(CCc3ccc(OC)c(OC)c3)C1=CCC(C)(C)C2
  A = i	B = x	C = 1.6	D = x	E = x	F = 6	G = 11	H = 3.9	I = 2.0

> Cc1cc(C(=O)N2CCN(c3cc(Cl)ccc3C)CC2)on1
  A = i	B = x	C = 0.5	D = -17	E = 0.67	F = -7	G = -9	H = 1.3	I = -3.4

> Cc1ccc(C(=O)NNC(=S)NCC2CCCO2)cc1[N+](=O)[O-] (configuration not stated)
  A = i	B = 1%	C = 0.8	D = 13	E = 0.7	F = 0	G = 2	H = 0.4	I = 3.9

> C=CCN(CC=C)C(=S)NC(=O)c1ccc(OC)c(Br)c1
  A = x	B = 4%	C = x	D = -1	E = 0.67	F = x	G = x	H = x	I = -0.6

> CSc1nncn1/N=C/c1ccccc1F
  A = x	B = -3%	C = x	D = -11	E = x	F = x	G = x	H = x	I = -0.2

> CCOc1ccccc1NC(=O)c1ccc(NC(=O)c2ccco2)cc1
  A = x	B = -2%	C = x	D = 4	E = 0.69	F = x	G = x	H = x	I = -1.8

> O=C(N/N=C/c1ccc(Cl)cc1)c1n[nH]c2c1CCCC2
  A = i	B = 20%	C = -4.4	D = -16	E = x	F = 7	G = -10	H = -3.0	I = -1.7

> O=C(c1[nH]c(C(F)(F)F)nc1-c1ccccc1)N1CCc2c([nH]c3ccccc23)C1
  A = i	B = x	C = 2.9	D = x	E = x	F = -9	G = -8	H = -3.9	I = 7.8

> COc1ccccc1/C=C/C=N/NC(=O)c1ccco1
  A = i	B = -3%	C = -0.8	D = -2	E = x	F = -22	G = -23	H = -3.7	I = 7.6

> Cc1nn(-c2ccccc2)c2nc(N)c(C#N)c(-c3ccc(F)cc3)c12
  A = x	B = -7%	C = x	D = -5	E = 0.7	F = x	G = x	H = x	I = 1.4

> CCOc1cc(C2C3=C(CCCC3=O)NC3=C2C(=O)CCC3)ccc1OCCO
  A = x	B = 3%	C = x	D = -66	E = 0.75	F = x	G = x	H = x	I = -11

> O=C(c1cc(-c2ccc(Cl)cc2)on1)N1CCN(c2ccccc2)CC1
  A = i	B = 4%	C = -3.1	D = 4	E = 0.63	F = x	G = x	H = x	I = 2.3

> CCC1(C)Cc2ccccc2C(=O)N1 (configuration not stated)
  A = i	B = -2%	C = -11	D = 14	E = 0.66	F = 17	G = -1	H = 1.2	I = 4.8

> CCCn1c(=NC(=O)CCS(=O)(=O)c2ccccc2)sc2cc(S(N)(=O)=O)ccc21
  A = i	B = 2%	C = 0.3	D = -4	E = 0.62	F = -10	G = -18	H = -1.0	I = 0.8

> COc1cc(CC(=O)O)c([N+](=O)[O-])cc1OC
  A = i	B = -3%	C = 7.8	D = -10	E = 0.71	F = 3	G = 3	H = -6.1	I = 0.4

> O=C(NC1CC1)c1cccc(S(=O)(=O)Nc2ccccc2F)c1
  A = i	B = 17%	C = -1.2	D = -4	E = 0.66	F = 13	G = 11	H = -1.8	I = 0.8

> CCNC(=O)C1CC(=O)N(c2ccc(OCC)cc2)C1 (configuration not stated)
  A = x	B = 9%	C = x	D = 6	E = 0.75	F = x	G = x	H = x	I = 3.1

> COc1cccc2cc(C(C)N(CCCN3CCOCC3)C(=S)Nc3cc(C)ccc3C)oc12 (configuration not stated)
  A = i	B = 0%	C = 14	D = -2	E = 0.65	F = -1	G = -11	H = 14	I = 2.0

> O=C(Cc1ccc(Cl)cc1Cl)NC1CCCCCC1
  A = i	B = x	C = -0.1	D = x	E = 0.71	F = 2	G = 3	H = -1.7	I = -2.6

> CCCCCOC(=O)NCC(O)c1ccccc1 (configuration not stated)
  A = x	B = 6%	C = x	D = -6	E = 0.71	F = x	G = x	H = x	I = -3.2

> COc1cccc(CC(=O)OCC(=O)NC(Cc2ccccc2)C(C)=O)c1 (configuration not stated)
  A = i	B = -2%	C = -1.2	D = -1	E = 0.7	F = 2	G = 0	H = 0.8	I = -0.1

> O=C(CN1C(=O)NC2(CCc3ccccc32)C1=O)Nc1ccc(N2CCOCC2)cc1 (configuration not stated)
  A = x	B = 14%	C = x	D = 30	E = 0.69	F = x	G = x	H = x	I = 0.3

Exported as comma-separated lines: ten of the compounds above
smiles,FGF22 binding,Vif TR-FRET,MLL AF4-AF9 inh,ALR inh,Ecoli growth,rRNA inh HTS,rRNA inh HTS OD600,rRNA inh HTS RFP,HNF4A DNA FP
O=C(NCCc1nc(-c2ccccc2Cl)no1)c1ccccc1,x,x,x,2,0.66,x,x,x,-2.6
O=C(NC12CC3CC(CC(C3)C1)C2)C1CCCN1C(=O)NC1CCCCC1 (configuration not stated),x,-12%,x,1,0.7,x,x,x,-0.4
CC(C)COC(=O)n1c(=O)oc2cc(S(=O)(=O)N3CCCCC3)ccc21,x,2%,x,x,0.65,x,x,x,1.1
COC(=O)[C@@]12C[C@@H](CC(=O)N3CCN(C(=O)C4CC4)CC3)C(=O)N(CCc3ccc(OC)c(OC)c3)C1=CCC(C)(C)C2,i,x,1.6,x,x,6,11,3.9,2.0
Cc1cc(C(=O)N2CCN(c3cc(Cl)ccc3C)CC2)on1,i,x,0.5,-17,0.67,-7,-9,1.3,-3.4
Cc1ccc(C(=O)NNC(=S)NCC2CCCO2)cc1[N+](=O)[O-] (configuration not stated),i,1%,0.8,13,0.7,0,2,0.4,3.9
C=CCN(CC=C)C(=S)NC(=O)c1ccc(OC)c(Br)c1,x,4%,x,-1,0.67,x,x,x,-0.6
CSc1nncn1/N=C/c1ccccc1F,x,-3%,x,-11,x,x,x,x,-0.2
CCOc1ccccc1NC(=O)c1ccc(NC(=O)c2ccco2)cc1,x,-2%,x,4,0.69,x,x,x,-1.8
O=C(N/N=C/c1ccc(Cl)cc1)c1n[nH]c2c1CCCC2,i,20%,-4.4,-16,x,7,-10,-3.0,-1.7

(further entries)
Key to letters – A = FGF22 binding; B = Vif TR-FRET; C = MLL AF4-AF9 inh; D = ALR inh; E = Ecoli growth; F = rRNA inh HTS; G = rRNA inh HTS OD600; H = rRNA inh HTS RFP; I = HNF4A DNA FP
> Cc1ccc(S(=O)(=O)N2C[C@H](O)COC[C@H]3O[C@@H](CC(=O)N[C@@H]4CCN(Cc5ccccc5)C4)CC[C@@H]32)cc1
  A = i	B = x	C = -1.2	D = x	E = x	F = -3	G = -3	H = -2.3	I = x

> COc1cc2c(cc1CNC[C@H]1O[C@@H](n3cnc4c(N)ncnc43)[C@H](O)[C@@H]1O)OCO2
  A = x	B = -6%	C = x	D = x	E = 0.71	F = x	G = x	H = x	I = -0.1

> Cc1nc(NC(=O)C2CCCCC2)sc1C
  A = x	B = -5%	C = x	D = 4	E = 0.69	F = x	G = x	H = x	I = 1.2

> CS(=O)(=O)N(CC(=O)NCc1ccccc1)c1ccc(Cl)cc1
  A = i	B = 0%	C = -0.2	D = -7	E = 0.66	F = 4	G = 6	H = 0.6	I = -0.3

> CCCC(=O)Nc1nnc(SCC(=O)NCc2cccs2)s1
  A = x	B = 1%	C = x	D = -9	E = 0.73	F = x	G = x	H = x	I = 1.5

> COc1ccc2sc(-c3ccc(S(C)(=O)=O)cc3)c(C#CCO)c2c1
  A = i	B = x	C = 2.5	D = -9	E = x	F = -15	G = -5	H = -2.8	I = 4.6

> CC(=O)c1ccc(N(CC(=O)NC2CCCCC2)C(=O)c2csnn2)cc1
  A = i	B = x	C = -0.8	D = -2	E = x	F = 5	G = 8	H = 0.1	I = 1.8

> COc1ccc2cc(C(=O)C3CCCN(C(=O)CCc4ccccn4)C3)ccc2c1 (configuration not stated)
  A = i	B = 7%	C = 0.3	D = 1	E = 0.65	F = -28	G = -30	H = -2.2	I = 1.0

> COc1cccc(OCc2cc(/C=N/Nc3ccc(C(=O)O)cc3)ccc2OC)c1
  A = i	B = 4%	C = -14	D = u	E = x	F = -2	G = -7	H = -1.1	I = 5.5

> CCCn1c(SCC#N)nc2c(c1=O)C1(CCCC1)Cc1ccccc1-2
  A = x	B = 14%	C = x	D = -18	E = 0.73	F = x	G = x	H = x	I = -3.1

> O=C(COC(=O)c1cccc(Oc2ccccc2)c1)NCc1ccco1
  A = x	B = 6%	C = x	D = 1	E = 0.75	F = x	G = x	H = x	I = 1.6

> COc1ccc(NC(=O)N(C)C[C@H]2OCCCC[C@H](C)Oc3ccc(NC(=O)Cc4ccccc4)cc3C(=O)N([C@@H](C)CO)C[C@H]2C)cc1
  A = i	B = x	C = -5.2	D = x	E = x	F = 1	G = 0	H = -2.5	I = x

> Cc1cc(/C=C2/NC(=O)NC2=O)c(C)n1-c1sc2c(c1C#N)CCCC2
  A = x	B = 10%	C = x	D = 16	E = x	F = x	G = x	H = x	I = 8.8

> Cc1ccc(NC(=O)Cn2nnc(C(=O)NCc3cccs3)c2N)c(C)c1
  A = i	B = -5%	C = -3.3	D = 1	E = 0.68	F = 6	G = 8	H = -2.4	I = 0.1

> O=C(COc1ccc(Cl)c(Cl)c1)NC1CCS(=O)(=O)C1 (configuration not stated)
  A = i	B = -12%	C = -1.1	D = 0	E = 0.7	F = 8	G = 7	H = 0.8	I = 1.8

> FC(F)(F)c1nc2ncc(Cl)cc2[nH]1
  A = x	B = 16%	C = x	D = 15	E = 0.61	F = 0	G = 3	H = 1.3	I = 2.4

> COCC(=O)Nc1ccc2c(c1)OC[C@H](C)N(C(=O)Cc1cccnc1)C[C@H](C)[C@@H](OC)CN(C)C2=O
  A = i	B = x	C = -0.7	D = x	E = x	F = 2	G = 5	H = -2.4	I = x

> CCc1ccc(C(=O)COC(=O)CNC(=O)c2cccs2)cc1
  A = x	B = 13%	C = x	D = -9	E = 0.65	F = x	G = x	H = x	I = 1.6

> Cc1ccc(C(=O)Nc2cc([N+](=O)[O-])ccc2C)cc1
  A = i	B = -7%	C = -1.1	D = -1	E = 0.69	F = -5	G = 0	H = -2.1	I = -2.2

> Brc1ccccc1C1=Nn2c(nnc2-c2ccco2)SC1
  A = i	B = 17%	C = -0.7	D = x	E = 0.67	F = -5	G = -5	H = 3.0	I = 25

> Cc1noc(C)c1S(=O)(=O)Nc1ccc2c(c1)C(=O)N([C@H](C)CO)C[C@H](C)[C@H](CN(C)Cc1ccccc1)O2
  A = i	B = x	C = 1.7	D = x	E = x	F = 1	G = 0	H = -0.3	I = x

> COc1cc(/C=C2\C(=O)ON=C2c2ccc(Cl)cc2)ccc1O
  A = i	B = x	C = 0.5	D = 62	E = 0.64	F = -18	G = -3	H = 41	I = x

> Cc1ccc(C(C)(c2ccc(N)cc2)c2ccc(N)cc2)cc1
  A = i	B = x	C = 11	D = 9	E = 0.67	F = -39*	G = -5.6*	H = -9.7*	I = -2.0

> N#C[C@H]1[C@@H](c2ccc(C3=CCCCC3)cc2)[C@H](CO)N1C(=O)Cc1ccncc1
  A = i	B = x	C = 5.8	D = x	E = x	F = 1	G = 2	H = 0.2	I = x
